Compound activity: PubChem, National Center for Advancing Translational Sciences (NCATS)
gsp agonist: qHTS for Agonist of gsp, the Etiologic Mutation Responsible for Fibrous Dysplasia/McCune-Albright Syndrome: qHTS; gsp mutant cells, cAMP HTRF, 30 min; control for the full effect not named in the record; AID 624287, 2012; Potency, µM (highest dose often 76.9 µM), for inactives: top-dose activation (cAMP increase), hits mostly activators; hit rate 0.13% among 340,000; active = well fitted activation curve with a large enough effect; inconclusive = small, poorly fitted or top-dose-only effect, or another doubt; inactive = no such curve, though single readings can be large or run the other way; cell line not stated here;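 note: phosphodiesterase inhibitor Ro 20-1724 added with compounds to block cAMP breakdown; potency is the fitted concentration of half-maximal effect; nearly all actives have a fitted effect of over 60% in size; about a fifth of the inactives were tested at one dose only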
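Cells stably selected in G418 were plated at 2000/well, grown 16-24 hr, then given compounds in DMSO with the PDE inhibitor […] (300 uM solution added) for 30 min at 37C; cAMP was read by HTRF.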
ClpP mod: qHTS Assay for Activators of ClpP; purified B. subtilis ClpP, FRET peptide cleavage, 20 min; Potency, µM (doses to about 57.5 µM), without a hit: top-dose activity change, negative = active; hit rate 1.9% among 340,000; AID 651965, 2013; active = well fitted falling curve with a large enough effect; inconclusive = small, poorly fitted or top-dose-only effect; inactive = no such curve, though single readings can be large or run the other way; note: potency is the fitted concentration of half-maximal effect; the source files actives as falling curves though it sought activators and does not explain the sign; nearly all actives have a fitted effect of over 65% in size; many hits overshoot -100%
Target sequence (P80244 whole entry, looked up): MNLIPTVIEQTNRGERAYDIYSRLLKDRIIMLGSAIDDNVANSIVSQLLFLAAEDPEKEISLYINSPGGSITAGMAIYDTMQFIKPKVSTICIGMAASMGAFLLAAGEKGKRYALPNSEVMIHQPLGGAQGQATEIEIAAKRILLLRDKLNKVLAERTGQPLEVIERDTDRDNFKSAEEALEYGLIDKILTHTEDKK
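Buffer: 100 mM Tris/HCl pH8, 100 mM KCl, 0.05% low protease BSA, 2.5% glycerol, 0.01% Tween-20. ClpP 10 microg/mL final; 20 min RT; delta FRET normalized to ADEP and DMSO controls.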
gsp antagonist: qHTS for Antagonists of gsp, the Etiologic Mutation Responsible for Fibrous Dysplasia/McCune-Albright Syndrome: qHTS; AID 624288, 2012; gsp-mutant cells, cAMP HTRF, 30 min; control for the full effect not named in the record; Potency, µM (series often up to 76.9 µM), for the others: top-dose activity change, negative = inhibition, actives largely listed as inhibitors; hit rate 0.4% among 340,000; active = falling curve of any shape with a large fitted effect; inconclusive = falling curve, mostly with a smaller effect; inactive = flat or rising curve; cell line not stated here;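 note: intracellular cAMP measured with PDE inhibitor Ro 20-1724 present during compound exposure; potency is the fitted concentration of half-maximal effect; % is set by controls: 0 for no effect and ±100 for the full control effect; nearly all actives have a fitted effect of over 65% in size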
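G418-selected cells were plated in DMEM/10% FBS for 16-24 h at 37C, then treated with compounds plus the PDE inhibitor […] (300 uM solution added) for 30 min at 37C. Intracellular cAMP was measured by HTRF after 30 min lysis at room temperature.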
Menin-MLL FL inh: qHTS Assay for Inhibitors Targeting the Menin-MLL Interaction in MLL Related Leukemias: Competition With Fluorescein Labeled MLL-derived Peptide. Fluorescence polarization, fluorescein-MLL peptide displacement from menin. FP activity change, % at 61.4 µM. 290,000 tested, under 10 active; inconclusive = falling polarisation curve, or a change in total fluorescence; inactive = total fluorescence flat and polarisation flat or rising; no compound was filed as active; the % refers to the polarisation; negative = inhibition;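 note: % of control where 0% means no effect; inhibitors lower the polarisation; unlabelled MLL peptide was the positive control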
CtBP-E1A blk: qHTS Assay for Inhibitors of the CtBP/E1A Interaction; hit rate 0.49% among 340,000; activity change, % (test concentration not listed); AID 651724, 2012; AlphaScreen GST-E1A/His-CtBP binding, 1536-well; active compounds read low; control for the full effect not named in the record; in the data active means activity change below about -65%; inconclusive means about -30% to -65%; inactive means above about -30%; note: % is set by controls: 0 for no effect and ±100 for the full control effect
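AlphaScreen with 125 nM GST-E1A and 125 nM His-CtBP (5X stocks) in Tris pH 8.0, 300 mM NaCl, BSA, Tween 20, TCEP. Compounds preincubated 2 h at 37 deg C, then glutathione donor/nickel acceptor beads added for 1 h at 37 deg C in dark.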
TRPV1 PAM: HTS Assay for Compounds that Act as Potentiators of the Vanilloid Receptor 1 | AID 540277, 2011 | Transient receptor potential cation channel subfamily V member 1 (Homo sapiens), Q8NER1 | potentiation, % at 8.33 µM | hit rate 0.02% among 320,000 | TRPV1-expressing cells, Fluo-8 calcium influx, capsaicin EC20 potentiation; host cell line not named in the record; control for the full effect not named in the record; active means potentiation above 80%; inconclusive means 30% to 80%; inactive means below 30%; note: 0% is about no effect
Target sequence (Q8NER1 whole entry, looked up): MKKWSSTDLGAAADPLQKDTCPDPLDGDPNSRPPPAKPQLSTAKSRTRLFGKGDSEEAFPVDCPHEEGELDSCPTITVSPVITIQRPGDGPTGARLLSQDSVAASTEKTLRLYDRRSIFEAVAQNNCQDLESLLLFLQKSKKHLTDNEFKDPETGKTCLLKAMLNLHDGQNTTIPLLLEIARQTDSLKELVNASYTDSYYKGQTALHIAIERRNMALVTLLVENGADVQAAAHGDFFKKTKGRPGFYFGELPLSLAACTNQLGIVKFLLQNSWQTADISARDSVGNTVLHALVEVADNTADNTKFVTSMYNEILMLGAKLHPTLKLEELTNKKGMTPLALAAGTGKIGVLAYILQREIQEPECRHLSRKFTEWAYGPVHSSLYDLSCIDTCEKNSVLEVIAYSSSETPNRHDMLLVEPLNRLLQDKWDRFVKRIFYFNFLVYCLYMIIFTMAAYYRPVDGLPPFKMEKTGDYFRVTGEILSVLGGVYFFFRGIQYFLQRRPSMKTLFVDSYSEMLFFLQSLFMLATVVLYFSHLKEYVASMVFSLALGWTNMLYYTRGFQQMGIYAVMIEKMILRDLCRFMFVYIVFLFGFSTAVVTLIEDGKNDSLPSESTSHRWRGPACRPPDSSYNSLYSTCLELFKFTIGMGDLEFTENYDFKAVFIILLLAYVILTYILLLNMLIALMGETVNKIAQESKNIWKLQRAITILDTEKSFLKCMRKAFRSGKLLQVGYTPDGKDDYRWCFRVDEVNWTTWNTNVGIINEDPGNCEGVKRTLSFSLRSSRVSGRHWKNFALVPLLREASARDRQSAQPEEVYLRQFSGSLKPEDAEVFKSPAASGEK
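Cells expressing TRPV1 were dye-loaded with Fluo-8 and read kinetically: 10 s baseline, 3 min after compound (agonist portion), then 2 min after EC20 capsaicin (allosteric enhancer portion). Calcium-bound dye fluorescence at 480/520 nm.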
Sfp inh: qHTS Assay for Inhibitors of Bacillus subtilis Sfp phosphopantetheinyl transferase (PPTase). Biochemical Sfp PPTase activity, qHTS. Potency, µM, inactives show max response, negative = inhibition, most hits filed as inhibitors. hit rate 3.5% among 310,000. 4'-phosphopantetheinyl transferase ffp (Bacillus subtilis), Q9F4F7; active = well fitted inhibition curve with a large enough effect; inconclusive = small, poorly fitted or top-dose-only effect, or another doubt; inactive = no such curve, though single readings can be large or run the other way;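 note: the enzyme is Sfp with the accession as filed and its product quenches rhodamine fluorescence; potency is the fitted concentration of half-maximal effect; 0% = enzyme reaction without inhibitor and -100% = no enzyme wells; top concentration of the series not given in the record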
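Compounds were incubated with enzyme (final 15 nM) for 15 min at room temperature before substrate addition started the reaction. Fluorescence at 525 nm excitation, 598 nm emission was recorded immediately and after 30 minutes.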
* marks the source's active call; other numbers are inactive results; ? = inconclusive; . = no result given; & = joins results of further samples; [ ] = another dose, or the depositor's remark.

SMILES	gsp agonist	ClpP mod	gsp antagonist	Menin-MLL FL inh	CtBP-E1A blk	TRPV1 PAM	Sfp inh
CN(CC(=O)Nc1ccccc1Cl)C1CCCCC1	-2%[15.4 µM]	-2.7%	-4%	6.8	20	21	13%
CN(Cc1ccc(F)cc1)C(=O)c1cc(S(=O)(=O)N2CCCCC2)ccc1N1CCOCC1	20%	1.1%	13%	.	5	-1	.
O=C(O)c1ccccc1N(c1ccccc1)c1ccccc1	20%[15.4 µM]	.	8%	.	-3	.	.
O=[N+]([O-])c1ccc(F)cc1OCc1nc(-c2cccs2)no1	-2%[15.4 µM]	.	4%	0.0	-23	1	3%
C[C@@H]1CN([C@@H](C)CO)C(=O)c2cc(Br)cnc2O[C@H]1CN(C)C(=O)CN1CCOCC1	-1%	0.3%	.	.	3	.	.
CCOC(=O)C1=C(C)OC(N)=C(C#N)C1c1cc(SCC)oc1C (configuration not stated)	-20%	.	-2%	8.6	-1	-49	11%
COC(=O)CSc1nc2[nH]ncc2c(=O)[nH]1	-6%	1.4%	0%	-1.0	4	-8	10%
COc1ccc(/C=C(/NC(=O)c2ccccc2)C(=O)N2CCCCC2)cc1OC	2%	-0.4%	8%	.	.	-7	18%
O=C(CNC(=O)c1ccccc1F)N/N=C/c1ccco1	14%	-3.2%	10%	-5.5	-7	10	-3%
Cc1ccc(C(C(=O)NC2CCCC2)N(C(=O)c2csnn2)C2CCCC2)o1 (configuration not stated)	-40%[inhibitor]	1.7%	11%	1.5	-5	-15	6%
CN1/C(=C/C(=O)c2nc(S(C)(=O)=O)ncc2Cl)C(C)(C)c2ccccc21	-11%	1.1%	-28%	?	14	8	-9%
CCCS(=O)(=O)c1nc(S(=O)(=O)c2ccc(C)cc2)c(NCCN2CCOCC2)s1	26%	0.8%	15%	4.4	-2	-1	-12%
O=C(CC(C(=O)O)c1cccc(Cl)c1Cl)c1ccccc1 (configuration not stated)	-3%[15.4 µM]	0.0%	?	-1.6	14	1	0%
CCc1cccc(C)c1NC(=O)CN1C(=O)c2ccccc2S1(=O)=O	-30%[inhibitor]	1.6%	9%	1.8	5	3	-5%
O=C(CCc1ccccc1)Nc1ccc(S(=O)(=O)N2CCOCC2)cc1	7%[15.4 µM]	.	-1%	-1.1	0	-26	0%
CCOC(=O)c1nnsc1Nc1ccc(C)c(C)c1	8%	2.0%	-4%	2.2	14	-19	-26%
c1ccc(CSc2ncnc3sccc23)cc1	-9%	0.1%	-6%	-0.8	46	-19	-13%
CCOC(=O)C1CCCC(NS(=O)(=O)c2ccc(NC(C)=O)cc2)C1 (configuration not stated)	11%	0.6%	1%	-2.9	10	-9	12%
CCN(C[C@H]1N[C@@](CC)(C(=O)OC)[C@H]2C(=O)N(Cc3ccccc3)C(=O)[C@@H]12)C(=O)C1CCCCC1	.	0.6%	-7%	.	-1	.	.
O=C(NN=Cc1ccc2c(c1)CCN2)c1cccs1	?	0.4%	.	.	2	.	.
O=C(c1cccc(S(=O)(=O)N2CCOCC2)c1)N1CCC(Cc2ccccc2)CC1	-19%	-1.9%	5%	.	-8	-28	.
CCOc1cc(C)ccc1OCc1nnc(SCC(=O)Nc2cccc(C(=O)O)c2)n1-c1ccccc1	-3%	-1.4%	9%	-1.4	9	1	22%
COc1ccc2cnn(-c3ccccc3C)c(=O)c2c1OC	31%	?	-2%	-0.7	5	9	7%
CCc1ccc([C@@H]2CC=C(C(=O)O)[C@H](c3ccc(C(C)(C)C)cc3)N2S(=O)(=O)c2ccc(C)cc2)cc1	.	2.5%	?	.	2	.	.
O=C(CC1C(=O)NCCN1CC(c1ccccc1)c1ccccc1)NCCc1cn[nH]c1 (configuration not stated)	14%	.	1%	-13	-2	5	?
OCC[C@@H]1C[C@@H](O)[C@H](O)[C@@]2(CCc3ccccc3CO2)O1	11%	0.5%	9%	-0.7	7	-8	7%
COc1ccccc1CNC(=O)C1Cc2ccccc2C(=O)O1 (configuration not stated)	12%	0.5%	8%	0.9	-1	0	22%
O=C(NCCc1csc(-c2ccccc2)n1)c1cccs1	-50%[inhibitor]	?	-16%	3.5	0	-8	4%
COc1cc(/C=C2\N=C(C)OC2=O)cc(Cl)c1OC(C)=O	?	0.9%	3%	?	-1	-23	?
COc1ccc(CNCc2ccncc2)cc1OC	1%[15.4 µM]	-0.1%	12%	1.9	4	1	2%
C/C(=N/NC(=O)c1cn(-c2cccc(C)n2)cn1)c1ccc(C)cc1	-18%	-2.0%	5%[15.4 µM]	-6.0	-5	6	-7%
COc1cccc(NC(=O)CC2Oc3ccccc3NC2=O)c1 (configuration not stated)	6%	0.1%&0.0%	2%	2.2	7	16	-1%
O=C(COc1coc(CN2CCN(c3ccc(F)cc3)CC2)cc1=O)NC1CCCCC1	-1%	-1.5%	-1%	.	-9	.	.
S=C1NC2=C(CCCC2)C2(CCCCC2)N1	-12%	-12%	6%	1.6	-1	-16	10%
CCS(=O)(=O)N1Cc2ccccc2CC1C(=O)Nc1nc2c(C)cccc2s1 (configuration not stated)	-7%	-8.3%	8%	0.5	-5	13	-4%
O=C(Cc1ccccc1)Nc1ccc(N2CCCC2)cc1	-1%	-2.2%	7%	8.7	-2	-2	?
Cc1ccc(N2C(=O)c3ccccc3C2Nc2ccc(S(=O)(=O)N3CCCCC3)cc2)nc1 (configuration not stated)	18%	-3.0%	-10%	-0.1	2	-15	2%
Cn1c(CCN2CCN(c3ccc(F)cc3)CC2)nc2cc(NC(=O)c3ccco3)ccc21	-28%	-2.6%	3%	1.6	-22	3	17%
O=C1NC[C@H](Cc2ccccc2)N(CC2CCN(CCCC3CCCC3)CC2)C1=O	.	-2.9%	-5%	.	-5	.	.
O=C(NCc1ccccc1Cl)c1cccc2c1C(=O)c1ccc(-c3ccc(OC(F)(F)F)cc3)cc1S2(=O)=O	2%	-1.6%	5%	.	-6	.	.
CCc1nnc(NC(=O)CCN(c2ccc(C)cc2)S(=O)(=O)c2ccccc2)s1	10%	-1.3%	-15%	-0.6	-1	3	-3%
CCN(CC)CCC(=O)c1ccc(F)cc1	27%	2.3%	18%	-4.7	3	13	-6%
Cc1c(Br)cc(C(=O)NCc2ccco2)c(C)c1C	-9%	-0.9%	-3%	7.6	-3	-3	?
CC(C)OC(=O)CSc1nnc(-c2ccc(C(C)(C)C)cc2)n1N	?	-2.4%	-5%	2.4	3	-11	16µM*
COc1ccc(OC)c(S(=O)(=O)N2CCC(C(=O)NCc3ccncc3)CC2)c1	9%[15.4 µM]	.	.	-1.1	18	-4	14%
Cc1ccc(-c2c(C)sc3ncn(CC(=O)N4CCOCC4)c(=O)c23)cc1C	21%	.	-2%	-0.6	6	0	24%
CC1CC(=O)N(CC(=O)Nc2ccc(F)cc2)c2ccccc2S1(=O)=O (configuration not stated)	-43%[inhibitor]	-0.8%	5%	-1.0	9	-11	12%
Cc1nc(SCC(=O)O)n[nH]1	-6%[15.4 µM]	.	13%	0.1	-1	2	7%
Cc1cc(Nc2cccc(C(F)(F)F)c2)n2nc(C)nc2n1	2%	-3.3%	6%	0.7	0	10	18%
CCc1ccc(Nc2oc(C)cc(=O)c2C(C)=O)cc1	-23%	-0.9%	-5%	6.3	-1	9	2%

As a short view, part of the list above.
SMILES	gsp agonist	ClpP mod	gsp antagonist	Menin-MLL FL inh	CtBP-E1A blk	TRPV1 PAM	Sfp inh
COc1ccc(OC)c(S(=O)(=O)N2CCC(C(=O)NCc3ccncc3)CC2)c1	9%[15.4 µM]	.	.	-1.1	18	-4	14%
Cc1ccc(-c2c(C)sc3ncn(CC(=O)N4CCOCC4)c(=O)c23)cc1C	21%	.	-2%	-0.6	6	0	24%
CC1CC(=O)N(CC(=O)Nc2ccc(F)cc2)c2ccccc2S1(=O)=O (configuration not stated)	-43%[inhibitor]	-0.8%	5%	-1.0	9	-11	12%
Cc1nc(SCC(=O)O)n[nH]1	-6%[15.4 µM]	.	13%	0.1	-1	2	7%
Cc1cc(Nc2cccc(C(F)(F)F)c2)n2nc(C)nc2n1	2%	-3.3%	6%	0.7	0	10	18%
CCc1ccc(Nc2oc(C)cc(=O)c2C(C)=O)cc1	-23%	-0.9%	-5%	6.3	-1	9	2%

The list goes on:
SMILES	gsp agonist	ClpP mod	gsp antagonist	Menin-MLL FL inh	CtBP-E1A blk	TRPV1 PAM	Sfp inh
O=C(COC(=O)[C@H](Cc1ccccc1)NC(=O)c1cccs1)NC1CCCCC1	0%	-0.7%	-10%	4.1	-16	-4	-2%
COc1ccc2[nH]c(=O)c(CN(CCO)S(=O)(=O)c3ccc4c(c3)OCCO4)cc2c1	-78%[inhibitor]	?	-1%	2.8	-11	28	-4%
COc1ccc2c(=O)c(-c3ccccc3C)c(C)oc2c1	19%	-12%	0%	1.6	-6	10	-3%
COc1ccccc1NC(=O)CSc1n[nH]c(Cc2ccccc2)n1	6%[15.4 µM]	4.8%	4%	.	7	-6	-1%
O=C(CSc1nnc2ccc(-c3cccnc3)nn12)Nc1ccccc1F	11%[15.4 µM]	-0.4%	2%	.	-10	3	.
COc1ccc([N+](=O)[O-])cc1NC(=O)COC(=O)C=C(C)C	-13%	.	-10%	-4.2	6	-23	25%
CC1(C)Cc2c(sc(NC(=O)c3ccc(Br)o3)c2C#N)CO1	18%	-2.8%	-1%	-0.4	-3	-3	8%
CCn1c(SC(C)C(=O)Nc2ccc3c(c2)OCCO3)nnc1C1CC1 (configuration not stated)	?	-3.0%	7%	.	-15	-5	.
Cc1cccc(C)c1NC(=S)N(CCc1ccncc1)C(C)C	12%	.	0%	0.1	9	-4	-8%
